NPYLR7 agonist: mosquito NPYLR7 agonism; HEK293T NPYLR7/Galpha15, GCaMP6s calcium fluorescence; activation, % at 10 µM; 270,000 compounds, 0.15% hits; in the data active = activation above about 40%;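 also: 0% = vehicle and 100% = reference agonist at the receptor; some compounds past the cut are filed as inactive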
NPYLR7 agonist max-min: second read-out of NPYLR7 agonist, no call of its own (marks repeat the call); activation, %; measured here: Max-Min RFU normalised activation; some inactives read as strong as hits;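 span of the calcium signal over five minutes; 0% = vehicle and 100% = native peptide agonist; compound fluorescence can raise it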
Starred values were filed as active, the others as inactive; & = joins results of further samples.

SMILES	NPYLR7 agonist	NPYLR7 agonist max-min
ClC1=C(Cl)C2(Cl)C3C(Cl)C=CC3C1(Cl)C2(Cl)Cl (stereo not given)	-6	-7
CC(Cc1ccco1)NS(=O)(=O)c1ccc(C#N)c(Cl)c1 (stereo not given)	5	4
Cc1cc([N+](=O)[O-])ccc1NC(=O)c1cccn(Cc2cccc(C(F)(F)F)c2)c1=O	14	4
COc1ccccc1C1SCC(=O)N(CC(=O)NC2CC2)c2c1c(C(C)(C)C)nn2C (stereo not given)	-2	8
CC1CC2(O)c3no[n+]([O-])c3CCC2N1O (stereo not given)	3	0
Cc1cccc(-n2nc(C(C)(C)C)c3c2N(CC(=O)O)C(=O)CSC3c2cccc(Cl)c2)c1C (stereo not given)	-5	-12
COc1cccc(C2c3c(c4ccccc4oc3=O)OC(=N)C2C#N)c1OC (stereo not given)	1	-7
CCCCOc1ccc(S(=O)(=O)N2CCN(CCOC(c3ccc(F)cc3)c3ccc(F)cc3)CC2)cc1	3	-1
CN1C(=C2C=NN(c3ccccc3)P2(=S)N2CCCC2)C(C)(C)c2ccccc21 (stereo not given)	10	15
O=C1CC(c2ccccc2)CN1CC(=O)N1C[C@H]2CC=CC[C@H]2C1 (stereo not given in full)	11	8
COc1ccc(N(C)C(=O)c2ccc(Cn3nc(C(=O)Nc4nncs4)c4ccccc43)cc2)cc1	2	26
CCOC(=O)CN1C[C@H](O)[C@@H]2C[C@@H]1CC[C@H]2O	4	6

Filtered by structure, those above containing sulfur (6)
SMILES	NPYLR7 agonist	NPYLR7 agonist max-min
CC(Cc1ccco1)NS(=O)(=O)c1ccc(C#N)c(Cl)c1 (stereo not given)	5	4
COc1ccccc1C1SCC(=O)N(CC(=O)NC2CC2)c2c1c(C(C)(C)C)nn2C (stereo not given)	-2	8
Cc1cccc(-n2nc(C(C)(C)C)c3c2N(CC(=O)O)C(=O)CSC3c2cccc(Cl)c2)c1C (stereo not given)	-5	-12
CCCCOc1ccc(S(=O)(=O)N2CCN(CCOC(c3ccc(F)cc3)c3ccc(F)cc3)CC2)cc1	3	-1
CN1C(=C2C=NN(c3ccccc3)P2(=S)N2CCCC2)C(C)(C)c2ccccc21 (stereo not given)	10	15
COc1ccc(N(C)C(=O)c2ccc(Cn3nc(C(=O)Nc4nncs4)c4ccccc43)cc2)cc1	2	26

Additional results follow:
SMILES	NPYLR7 agonist	NPYLR7 agonist max-min
CC(=O)Nc1ccc(Cl)c(C(=O)NCCc2cnc[nH]2)c1	19	2
O=S(=O)(c1cccc(Cl)c1Cl)N1CCN(CCOC(c2ccccc2)c2ccc(F)c(F)c2)CC1 (stereo not given)	3	1
Cc1csc(C2(NCC3CCCC3)CCCC2)n1	8	8
CC(C(=O)NCc1cc(C(C)(C)C)n[nH]1)N1CCCC1=O (stereo not given)	4	4
CCOC(=O)[C@@H]1[C@@H](c2ccccc2)CN2CCNC[C@H]12	8	14
Fc1cc(Br)ccc1C[N+]12CCN(CC1)CC2	5	4
CCOC(=O)C1(CCc2ccccc2)CCN(Cc2cccc3cnccc23)CC1	12	5
CN(C(=O)[C@@H](N)Cc1cnc[nH]1)C1Cc2ccccc2C1	6	6
CCCCCCc1c(O)[nH]c(=S)[nH]c1=O	9	4
O=C(CCl)Nc1nccs1	-5	-4
COc1cccc(NP(=O)(Oc2ccccc2F)Oc2ccccc2F)c1	1	1
O=C(CN1C(=O)CSC(c2cccc(F)c2)c2c(-c3ccccc3)nn(-c3ccc(F)cc3)c21)NC1CC1 (stereo not given)	-1	9
O=c1[nH]c2ccccc2n1CCCN1CCC(n2c(=O)[nH]c3cc(Cl)ccc32)CC1	-16&-2&-2	-22&-4&-30
FC(F)Sc1ccc(NC(=S)NC2CN3CCC2CC3)cc1 (stereo not given)	-1	-5
CC1CCCCN1Cc1ccc(Cl)nc1 (stereo not given)	18	9
C=C(C)CSc1nc2ccccc2c(=O)n1-c1cccnc1	-2	0
COCCNC(=O)CN1C(=O)CSC(c2ccccc2F)c2c(C(C)(C)C)nn(C)c21 (stereo not given)	26	21
Cc1cc(Cl)ccc1C(=O)C1CCCN(C2CSCCSC2)C1 (stereo not given)	13	8
COc1cccc(CN(C)C(C)Cc2ccccn2)c1O (stereo not given)	-2	1
COc1cc(C=C(C#N)C#N)cc(OC)c1O	29	26
COc1ccc(-n2nc(C(C)(C)C)c3c2N(CC(=O)O)C(=O)CSC3c2ccccc2OC)cc1 (stereo not given)	6	6
CN1CCN(CCCN2c3ccccc3Sc3ccc(Cl)cc32)CC1	-26&-3&-12&2	-28&-4&-18&13
COC(=O)CCCCC(=O)Nc1ccc2[nH]cc(CCN3CCCC3)c2c1	4	12
Cc1cccc(NC(=O)N2CCN(CCOC(c3ccccc3)c3cccc(C(F)(F)F)c3)CC2)c1 (stereo not given)	2	0
CCOC(=O)[C@H]1CN(C(=O)Cc2cccs2)[C@]2(C)C(=O)N(CC3CC3)c3ccccc3[C@H]12	-1	2
CC1[C@H](C)OC(=O)CC(O)CC(O)CC(O)CCC(O)C(O)C[C@]2(O)CC(O)C(C(=O)O)C(CC(OC3O[C@H](C)[C@@H](O)[C@H](N)[C@@H]3O)C=C/C=C/C=C/C=C/CC/C=C/C=C/[C@H](C)[C@H]1O)O2 (stereo not given in full)	-8&4	-12&-1
Cc1nn(-c2ccccc2)c(C)c1P(=S)(N1CCCC1)C(C)(C)C (stereo not given)	8	7
CC(=O)OC1(c2ccc(C)cc2)CN2CCC1c1ccccc12 (stereo not given)	-11	-17
Cn1c(=O)c2cc(S(=O)(=O)N3CC4CC(C3)c3cccc(=O)n3C4)ccc2n(C)c1=O (stereo not given)	5	2
CCC(Oc1ccc(Cl)cc1)C(=O)OC1CC2CCC(C1)N2C (stereo not given)	9	0
CN1C(=O)C2(CCN(CCS(=O)(=O)c3ccccc3)CC2)c2ccccc21	-3	-4
CCCCCCCCCCCCCC(=O)O[C@@H]1[C@@H](C)[C@@]2(O)[C@@H](C=C(CO)C[C@@]3(O)C(=O)C(C)=C[C@@H]23)C2C(C)(C)[C@@]21OC(C)=O (stereo not given in full)	0	23
O=c1[nH]cc(CN2C[C@H]3CC=CC[C@H]3C2)c(=O)[nH]1	34	20
COC(=O)C(OS(=O)(=O)c1ccc(C)cc1)(c1ccccc1)c1ccccc1	10	4
CN1CCNC(=O)C12CCN(C(=O)c1ccncc1F)CC2	6	2
O=C(Nc1ccc(F)cc1)N1CCN(CCOC(c2ccccc2)c2ccccc2)CC1	16	19

Arranged by number of heavy atoms (ascending): seven of the compounds above
SMILES	NPYLR7 agonist	NPYLR7 agonist max-min
O=C(CCl)Nc1nccs1	-5	-4
CC1CCCCN1Cc1ccc(Cl)nc1 (stereo not given)	18	9
CCOC(=O)[C@@H]1[C@@H](c2ccccc2)CN2CCNC[C@H]12	8	14
CCC(Oc1ccc(Cl)cc1)C(=O)OC1CC2CCC(C1)N2C (stereo not given)	9	0
COc1cccc(NP(=O)(Oc2ccccc2F)Oc2ccccc2F)c1	1	1
COc1ccccc1C1SCC(=O)N(CC(=O)NC2CC2)c2c1c(C(C)(C)C)nn2C (stereo not given)	-2	8
Cc1cccc(NC(=O)N2CCN(CCOC(c3ccccc3)c3cccc(C(F)(F)F)c3)CC2)c1 (stereo not given)	2	0

(continued)
SMILES	NPYLR7 agonist	NPYLR7 agonist max-min
CN1CCC2(CCN(C(=O)c3ccc[nH]3)CC2)C1	6	5
COc1ccc(NC(=O)OC[C@H]2C[C@@H]3CCN2C[C@@H]3c2cc(C3CCCC3)nc(-c3ccncc3)n2)cc1	-9	-17
O=C(COc1ccc(F)cc1)N1CCN(Cc2cccc(-c3noc(-c4ccccc4)n3)c2)CC1	-5	-10
COc1ccc(CC(C)N(C)C(=O)Nc2ccccc2F)cc1 (stereo not given)	-8	-7
CC(=O)NS(=O)(=O)c1ccc(NC(=O)c2cccn(Cc3cccc(C)c3)c2=O)cc1	10	6
CC(C)CCN1CCN(Cc2ccccc2Cl)CC1CCO (stereo not given)	0	-3
O=C(COc1ccccc1)N1CCN(Cc2nnnn2-c2ccccc2)CC1	-7	-6
Cc1nn(C)c(Cl)c1CN1CCC2(CCCNC2)C1 (stereo not given)	5	3
COC(=O)C1(O)CC2CCC(C1)N2C (stereo not given)	-3	1
Cc1ccn2c(CNC(C)Cc3cccnc3)c(C(=O)N3CCCCCC3)nc2c1 (stereo not given)	-3	11
CCOC(=O)[C@@H]1[C@H]2CN(C(=O)COC)CCN2C[C@H]1c1ccccc1	7	15
CCc1c(C(=O)Nc2ccc(F)c(Cl)c2)cnn1C(C)(C)C	1	0
CNc1ncccc1C(=O)N1CCN(C)C2(CCN(C)CC2)C1	7	5
Cc1[nH]cnc1CCN	-12	-16
c1ccc(C(OCCN2CCN(Cc3cccnc3)CC2)c2ccccc2)cc1	25	21
CCC1NCCC1c1ccc(C)cc1 (stereo not given)	18	13
Cc1ccc(-n2nc(-c3ccccc3)c3c2N(CC(=O)N2CCCC2)C(=O)CSC3c2sccc2C)c(C)c1 (stereo not given)	14	2
CC(C)Cc1nc(-c2ccc(CN3CCN(C(=O)Cc4ccc5c(c4)OCO5)CC3)cc2)no1	7	11
CC1CN(C(=O)Cc2ccn(C(C)C)n2)CC1N1CCOCC1 (stereo not given)	3	-3
COc1ccc([C@@H]2CN(C(=O)C3CCC(O)CC3)[C@@H]3C4CCN(CC4)[C@@H]32)cc1 (stereo not given in full)	6	-1
COCc1nc(-c2ccc(CN3CCN(C(=O)Cc4nc(-c5cccc(F)c5)oc4C)CC3)cc2)no1	3	-1
O=C(Cc1c(-c2ccccc2)[nH]c2ccccc12)N1CCN(CCO)CC1	13	7
COc1cccc(CC(=O)N2CCN(Cc3cccc(-c4noc(-c5cccc(Cl)c5)n4)c3)CC2)c1	6	4
CCCCC[C@H]1C(=O)O[C@H](C)[C@H](NC(=O)c2cccc(NC=O)c2O)C(=O)O[C@@H](C)[C@@H]1OC(=O)CC(C)C	-2	-6

The list continues.
Molecule,NPYLR7 agonist,NPYLR7 agonist max-min
CN(CC(=O)N1CCN2CCNC(=O)C2C1)Cc1ccncc1 (stereo not given),14,2
Brc1ccc(C2CC(c3cccnc3)Nc3ncnn32)cc1 (stereo not given),7,6
S=C=NCc1ccccc1,-4,-8
O=[N+]([O-])NC1=NCN(Cc2ccco2)CN1c1ccccc1,17,11
CN1CCC2(CC1)CN(C(=O)c1cc(=O)[nH]c(=O)[nH]1)CCCN2C,0,-1
COc1ccc(C=NNP(=S)(c2ccccc2)c2ccccc2)cc1OC,0,1
COc1ccc(C(=O)C2CCCN(CCCn3cccn3)C2)c(OC)c1 (stereo not given),8,11
Cc1ncc2c(c1CNC(=O)c1cn[nH]n1)CCNC2,2,2
O=C(CCn1ccccc1=O)N1C[C@@H](c2ccccc2)[C@@H]2[C@H]1C1CCN2CC1,5,-6
COc1ccc(C)cc1NC(=O)c1cccn(Cc2ccccc2)c1=O,17,8
CCOC(=O)C(O)(c1ccc(N(CC)C(=O)OC)cc1)C(F)(F)F (stereo not given),14,4
CC(=O)OCC1=C(C(=O)O)N2C(=O)[C@@H](NC(=O)CCC[C@@H](N)C(=O)O)[C@H]2SC1,7,-5
Nc1ccc(-n2c(=O)[nH]c3ccccc3c2=O)cc1,-3,-3
C=CCNc1ccccc1C(=O)N1C[C@@H]2C[C@@H](C1)c1cccc(=O)n1C2,-6,-8
CCN(CC)S(=O)(=O)c1ccc(Cn2nc(C(=O)Nc3cc(C)on3)c3ccccc32)cc1,-2,16
C[C@H]1OC[C@@H](C[N+](C)(C)C)O1,-5,-5
CN(C)C(=O)Oc1c(Br)cc(Br)c2cccnc12,5,3
Cn1nc(-c2ccc(F)cc2)cc1[C@H]1CN2CC[C@H]1C[C@@H]2CNC(=O)CC(C)(C)CC(=O)O,-10,-15
O=C(NC[C@H]1C[C@H]2C=C[C@H]1C21CC1)c1cn(Cc2ccccc2F)nn1,4,1
Cc1ccccc1C1c2c(c3ccccc3oc2=O)OC(=N)C1C#N (stereo not given),2,-2
Cc1ccsc1C(=O)C1CCCN(Cc2cccc(F)c2)C1 (stereo not given),1,-1
Cc1ccc2c(c1)P(=S)(N(C(C)C)C(C)C)C(N(C)C)=N2 (stereo not given),-1,-4
CNC(C)CC1CCCCC1 (stereo not given),-15,-24
Oc1cc(Cl)cc(Cl)c1,16,24
Cc1c[nH]c(CN2C[C@H]3CC=CC[C@H]3C2)c(C)c1=O,28,15
Cc1cc(Cl)ccc1C(=O)C1CCCN(Cc2ccccc2O)C1 (stereo not given),0,-2
CCCCOc1ccc(S(=O)(=O)N2CCN(CCOC(c3ccccc3)c3ccc(F)c(F)c3)CC2)cc1 (stereo not given),6,5
N#Cc1ccc(Cl)cc1NC(=O)c1cccn(Cc2ccccc2F)c1=O,3,0
Fc1ccc(C2CC(c3cccnc3)=Nc3nnnn32)cc1 (stereo not given),6,0
CCOC(=O)N1CCC(NC(C)Cc2cc(C)[nH]n2)CC1 (stereo not given),5,7
CCc1csc(CNC(C)Cn2cncn2)n1 (stereo not given),0,-4
COC(=O)C1C2c3ccccc3OC1(C)N=c1s/c(=C\c3ccccc3OC)c(=O)n12 (stereo not given),8,7
COc1cccc([C@@H]2CN(C(=O)c3nonc3C)[C@@H]3C4CCN(CC4)[C@@H]32)c1,-1,-2

From PubChem

The list is partial; count on the stated rates, not on these rows.
